# High-throughput results: PubChem BioAssay, Southern Research Specialized Biocontainment Screening Center
# quorum sensing: Vibrio cholerae quorum sensing activators, luminescence (AID 686977); V. cholerae quorum sensing reporter, luminescence, 6 h; higher luminescence means a stronger effect; most inactives read 0; 9,400 tested, under 10 active; luminescence at 50 µM unless noted; hits with a dose series show EC50 in µM;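 active = light above mean plus 3 SD and confirmed in a dose series; inconclusive = above that limit without a clear retest; inactive = below it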;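 also: raw light counts without normalisation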
# Starred values were filed as active, the others as inactive; ? = inconclusive; [ ] = remark or other dose. This is a subset. The share of hits here may be higher or lower than overall.
mol | quorum sensing
Cc1ccc(C(=O)/C=C/c2ccc(-c3ccccc3[N+](=O)[O-])o2)cc1 | 0
c1ccc(C2NCCn3cccc32)cc1 (stereo not drawn) | 40
CCN1C(=Nc2ccc(Cl)cc2)SC/C1=C\C(=O)OC | 40
CC(C)(C)CC(=O)N1CCC(c2nc3c(nnn3Cc3c(F)cccc3Cl)c(=O)[nH]2)CC1 | 40
COc1ccc(S(=O)(=O)NCCSC(C)(C)C)c(Cl)c1Cl | 0
CCn1c(CSc2nc3ccccc3s2)nnc1SCC(=O)OC(C)(C)C | 0
COc1cccc(NC(=O)C2CCN(S(C)(=O)=O)CC2)c1 | 80
COC(=O)c1cc(NC2c3ccccc3C(=O)N2c2cccnc2)cc(C(=O)OC)c1 (stereo not drawn) | 40
CCN(CC)CCn1c(NCc2nc3ccccc3n2Cc2ccccc2)nc2ccccc21 | 40
COc1cccc(-n2nnc3c(=O)n(CC(=O)NCC4CCCO4)cnc32)c1 (stereo not drawn) | 0
O=c1oc2ccccc2c(Nc2cccc(O)c2)c1[N+](=O)[O-] | 0
Nc1nc(N)c2nc(-c3ccccc3)c(N)nc2n1 | 0[10 µg/mL]
Cc1[nH]c(=S)[nH]c(=O)c1CCOc1ccccc1 | 0
COc1ccc(NC(=O)C2CCN(C(=O)c3cccs3)CC2)cc1 | ?
COc1cccc(C2C(C#N)=C(N)OC3=C2C(=O)CC(c2ccco2)C3)c1OCc1ccc(F)cc1 (stereo not drawn) | 0
O=C(Nc1ccc(Br)cc1F)C1CCN(c2nnc(-n3cccc3)s2)CC1 | 0
C=C1C/C(=C/C)C(=O)O[C@@H]2CCN3CC=C(COC(=O)[C@]1(C)O)[C@H]23 | 0[10 µg/mL]
Cc1cc(C)n(C(=O)c2ccc(C)o2)n1 | 40
COc1cc(CNC(=O)CCCC/C=C/C(C)C)ccc1O | 40[10 µg/mL]
CCOC(=O)C1CCCN(C(=O)c2ccc(CS(=O)(=O)c3ccc(Br)cc3)o2)C1 (stereo not drawn) | 0

# New compounds follow
mol | quorum sensing
CCC(C)NC(=O)CSc1nc2ccc(N3CCOCC3)cc2c(=O)n1CCc1ccccc1 (stereo not drawn) | 0
CCC(C)(CN(C)C)OC(=O)c1ccccc1 (stereo not drawn) | 0[10 µg/mL]
C/C(=N\S(=O)(=O)c1ccc(C)cc1)N1CCN(S(=O)(=O)c2ccccc2)C1 | 0
CCc1ccc(-n2c(SCc3c(C)noc3C)nnc2-c2ccncc2)cc1 | 40
C=CCOc1c(Br)cc(CNc2ccc(NC(=O)C(C)C)c(OC)c2)cc1OC | 0
CCOC(=O)CC1C(=O)NCCN1C(=O)c1cc2c(=O)n3ccccc3nc2s1 (stereo not drawn) | 160
COc1ccc(-c2cn3c(C)c(C(=O)N4CCN(c5ccc(F)cc5)CC4)sc3n2)cc1 | 0
Cc1c(C(=O)OC2CCC(C)CC2)[nH]c2c1C(=O)CCC2 (stereo not drawn) | 40
CC(=O)Nc1c(C(=O)NCc2ccccc2)nnn1Cc1ccccc1 | 0
O=C(O)Cn1cc(C(=S)N2CCOCC2)c2ccccc21 | 0
O=C(Cc1cccc2ccccc12)N/N=C1\CCCc2ccccc21 | 0
COc1ccc(-n2c3c(cc(C(=O)N4CCC(C)CC4)c2=O)C(=O)CC(C)(C)C3)cc1 | 40
CC1CCN(S(=O)(=O)c2ccc(NC(=O)Cn3nnc(-c4ccccc4F)n3)cc2)CC1 | 0
CCN(CC)CCNc1ccnc2cc(Cl)ccc12 | 200
Cc1ccc(N2C(=O)N(CC(=O)N(C)Cc3ccccc3)C(=O)C2C)cc1 (stereo not drawn) | 0
CCCn1c(CN2CCN(C(=O)c3ccco3)CC2)nc2c1c(=O)n(C)c(=O)n2C | 0
O=C(NC1CC2CCC1C2)C1COc2ccccc2O1 (stereo not drawn) | 40
C1CCN2C[C@@H]3C[C@@H](CN4CCCC[C@@H]34)[C@H]2C1 | 0[10 µg/mL]
O=C(c1cccs1)N1CCN=C1SCc1ccccc1 | 0
CCc1ccc(C(=O)COc2ccc(NC(C)=O)cc2)cc1 | ?

# Reformatted with each value named: two of the compounds above
compound: C/C(=N\S(=O)(=O)c1ccc(C)cc1)N1CCN(S(=O)(=O)c2ccccc2)C1
- quorum sensing = 0

compound: O=C(Cc1cccc2ccccc12)N/N=C1\CCCc2ccccc21
- quorum sensing = 0

# Returning to the listing with the 6 entries that preceded the break.
mol | quorum sensing
Cc1ccc(N2C(=O)N(CC(=O)N(C)Cc3ccccc3)C(=O)C2C)cc1 (stereo not drawn) | 0
CCCn1c(CN2CCN(C(=O)c3ccco3)CC2)nc2c1c(=O)n(C)c(=O)n2C | 0
O=C(NC1CC2CCC1C2)C1COc2ccccc2O1 (stereo not drawn) | 40
C1CCN2C[C@@H]3C[C@@H](CN4CCCC[C@@H]34)[C@H]2C1 | 0[10 µg/mL]
O=C(c1cccs1)N1CCN=C1SCc1ccccc1 | 0
CCc1ccc(C(=O)COc2ccc(NC(C)=O)cc2)cc1 | ?
CNC(=S)N1N=C(c2ccc(C)cc2)CC1c1ccc(OC)cc1 (stereo not drawn) | 240
CCOC(=O)Cn1c(=O)oc2cc(S(=O)(=O)NC3CCCc4ccccc43)ccc21 (stereo not drawn) | 0
Cc1cccc(CN2CCN(C(c3ccccc3)c3ccc(Cl)cc3)CC2)c1 (stereo not drawn) | 0[10 µg/mL]
CC(NC(=O)NC1CCCCC1)C(c1cccs1)N1CCN(c2ccccc2)CC1 (stereo not drawn) | 0
CCC(c1nnc(SCCNCCO)n1CCN1CCOCC1)N(C)C (stereo not drawn) | 0
CCCCC(=O)Nc1ccc2c(c1)OCCO2 | 0
CCCNS(=O)(=O)c1ccc(OCC(=O)N2CCN(Cc3ccc4c(c3)OCO4)CC2)cc1 | 0
COc1c(C)cccc1C(=O)Nc1cc(Cl)ccc1N1CCOCC1 | 240
CCCCC1(COC(=O)CCC(=O)O)C(=O)N(c2ccccc2)N(c2ccccc2)C1=O | 0[10 µg/mL]
CCC(=O)Nc1cccc(NC(=O)CSc2nnc(-c3ccc(NS(C)(=O)=O)cc3)n2CC)c1 | ?
CCCCC(CC)CNC(=O)c1[nH]c(C)c(C(C)=O)c1C (stereo not drawn) | 0
Cc1sc2nc(CN3CCOCC3)nc(NS(=O)(=O)c3ccccc3)c2c1C | ?
COc1cc2ccccc2cc1-c1nnc(COc2ccccc2)o1 | 0
CCOC(=O)C1CCN(C(=O)Cc2c(C(=O)O)[nH]c3ccccc23)CC1 | 0
Cc1ccc(C(=O)CSc2ccccn2)cc1 | 0
Cc1ccc2[nH]c(=O)c(CN(Cc3cccs3)Cc3nnnn3Cc3ccccc3)cc2c1 | 0
O=C(N/N=C/c1cccc(Cl)c1Cl)Nc1ccccc1 | 0
O=C(Nc1nnc(-c2ccco2)o1)C1CCCCC1 | 80
Cc1ccc(C(=O)NCC(=O)OCC(=O)c2c(N)n(C)c(=O)n(C)c2=O)s1 | 40
Cc1nc2ccc(NC(=O)N(C(C)C)C(C)C)cc2s1 | 0

# Next section.
mol | quorum sensing
CCOc1ccc(N2C(=O)CC(Sc3nc(C)cc(C)n3)C2=O)cc1 (stereo not drawn) | 160
COc1ccc(C(=O)c2coc3ccc(O)c(CN4CCCCC4)c23)cc1 | 40
CC1CCN(C(=O)CSc2nc3c(cnn3-c3ccc(Cl)cc3)c(=O)[nH]2)CC1 | 0
CN(C)CCCNS(=O)(=O)c1ccc(N2CCC(c3ccc(Cl)cc3)=N2)cc1 | 0
CCCc1cc(=O)n2c(nc3ccccc32)[nH]1 | 0
COC(=O)c1cc2ccsc2n1Cc1nc(-c2cccc(Cl)c2)oc1C | 160
CCN[C@H]1CN(CCCOC)S(=O)(=O)c2sc(S(N)(=O)=O)cc21 | 0[10 µg/mL]
CCOC(=O)C1=NN(N=O)C2(CC(=O)N(c3cc(C)cc(C)c3)C2=O)C1 (stereo not drawn) | 0
CC(=O)c1c(C)[nH]c(C(=O)CSc2nnc(-c3cccs3)n2Cc2ccccc2)c1C | 40
COc1cc2c(=O)n(CC3CCCO3)c(=O)n(CC(=O)Nc3cccc(Cl)c3)c2cc1OC (stereo not drawn) | 0
COc1ccc(-c2nc(C(N)=O)c3[nH]c(=O)n(-c4ccccc4OC)c3n2)c(OC)c1 | 80
Cc1ccc2c(c1)N(CCC(=O)NC(C)C)C(=O)CO2 | 280
CC[N+](C)(C)Cc1ccccc1Br | 0[10 µg/mL]
CSc1oc(-c2ccco2)nc1S(=O)(=O)c1ccc(Br)cc1 | 0
COc1ccc(NC(=O)c2c(NC(=O)CNCc3ccco3)sc3c2CCC3)c(OC)c1 | 40
CCOC(=O)C1CCN(C(=O)Cn2cc3c(n2)CCC(C)C3)CC1 (stereo not drawn) | 320
Cc1cc(S(=O)(=O)NCCN2CCOCC2)c(C)s1 | 0
CC1=C(C(=O)N2CCCCC2)C2(CCC(C)CC2)OC1=O (stereo not drawn) | 1000
Cc1nc(-c2cccc(N)c2)cs1 | 0
O=C(c1ccc(C#CC2(O)CCCCC2)cc1)N1CCN(C(c2ccccc2)c2ccccc2)CC1 | 40

# Next section.
mol | quorum sensing
CC(c1ccccc1F)n1cc(C(=O)NCCc2ccco2)nn1 (stereo not drawn) | 40
COc1ccc(N2CCN(c3cc(=O)n(Cc4ccc(F)cc4)c(=O)[nH]3)CC2)cc1 | 0
CCOC(=O)C1CCCN(c2c(N3CCN(C4CCCCC4)CC3)c(=O)c2=O)C1 (stereo not drawn) | 0
COc1ccc(C2=NCC(=O)N(CC(=O)NCc3ccco3)c3sc4c(c32)CCCC4)cc1 | 40
COC(=O)c1ccc(NC(=O)CN(C)S(=O)(=O)c2ccc(OC)c(C)c2)cc1 | 0
O=C(c1ccccc1Cl)N1CCC(c2nc3c(nnn3Cc3ccco3)c(=O)[nH]2)CC1 | 0
CCCN1CCN(C(=O)Cn2c(=O)oc3cc(S(=O)(=O)NCc4ccccc4)ccc32)CC1 | ?
c1ccc(-c2c(-c3ccccc3)n(Cc3ccco3)c3ncnc(NCCCn4ccnc4)c23)cc1 | 0
Cc1ccnc(N2C(=O)c3ccccc3C2O)c1 (stereo not drawn) | 0
O=c1c(O)c(-c2cc(O)c(O)c(O)c2)oc2cc(O)cc(O)c12 | 0[10 µg/mL]
O=C(c1cnc2n(c1=O)CCS2)N1CCN(c2ccccc2F)CC1 | 40
CC1CC2(CCCCC2)N2C(=O)C(=O)c3cccc1c32 (stereo not drawn) | ?
Cc1nnc(NC(=O)CSc2nc3c(c(=O)n2CCc2ccccc2)SC(C)C3)s1 (stereo not drawn) | 0
CCCCNC(=O)CSc1nnc(-c2c[nH]c3ccccc23)n1CC1CCCO1 (stereo not drawn) | ?
O=C(NCc1ccccc1)c1ccc(S(=O)(=O)N2CCCC2)cc1 | 40
Cc1cc(=O)oc2c(N)c(O)ccc12 | 0
CCN(CC)S(=O)(=O)c1ccc(NC(=O)Cn2c(=O)oc3ccccc32)cc1 | 40
Cc1cc2c(cc1C)CSC(c1ccc(O)cc1)SC2 | ?
Cc1nnc(SCC(=O)NCc2ccccc2)n1-c1ccccc1 | 0
CCN(CC)c1ccc(NC(=O)c2cncc(Br)c2)cc1 | 0

# Continuation:
mol | quorum sensing
O=C(OCCCc1ccncc1)c1ccc(S(=O)(=O)N2CCOCC2)cc1 | 0
CC(Cc1ccccc1)NCCC(c1ccccc1)c1ccccc1 (stereo not drawn) | 160[10 µg/mL]
CCOC(=O)c1c(C)oc2c1cc(O)c1ccccc12 | 0
CCN1CCCC(OC(=O)C(c2ccccc2)c2ccccc2)C1 (stereo not drawn) | 40[10 µg/mL]
O=CNCCCc1nc2ccccc2n1Cc1cccc2ccccc12 | 320
C=CCOC(=O)C1C(=O)CC(C)(O)C(C(=O)OCC=C)C1c1ccc(OCC)cc1 (stereo not drawn) | ?
COc1ccc(CNC(=O)c2ccc(CN3CCOCC3)cc2)cc1 | 0
Cc1c(C)c2c(c(C)c1O)CCC(C)(C(=O)O)O2 (stereo not drawn) | 240[10 µg/mL]
Cc1nnc(SCCn2c(N3CCCC(C)C3)nc3c2c(=O)n(C)c(=O)n3C)s1 (stereo not drawn) | 0
COC(=O)/C(=C/Nc1ccc(O)cc1)[N+](=O)[O-] | 40
Cc1ccc(C)c(C(=O)Cn2ncc(Cl)c(Cl)c2=O)c1 | 40
CCCC(=O)NCCCc1nc2ccccc2n1CC | 0
CCOc1ccc(CNC(=O)C(CC)n2nc(C)n3c(cc4occc43)c2=O)cc1OC (stereo not drawn) | 0
Cc1ccc(CNC(=O)CCSCCC(=O)NCc2ccc(C)cc2)cc1 | ?
Cc1nnc(SCc2cc(=O)[nH]c(N3CCN(Cc4ccccc4)CC3)n2)s1 | 0
C[n+]1cc2c3c(ccc2c2ccc4cc5c(cc4c21)OCO5)OCO3 | 0[10 µg/mL]
COC(=O)c1cc(OC)c(OCc2cc(C(=O)OC)oc2C)c(OC)c1 | 320
Cc1ccc(Sc2nc3c(c(=O)[nH]c(=O)n3C)n2CCc2ccccc2)cc1 | 0
CCOC(=O)c1c(C)c(C(=O)NCc2cccs2)c(C)n1CC | 0
Cc1cc(C(=O)NCc2cc(C(=O)O)oc2C)c(C)o1 | 40

# The listing continues:
mol | quorum sensing
COC(=O)Nc1nc2ccc(C(=O)c3ccccc3)cc2[nH]1 | 40[10 µg/mL]
COc1cccc(NC(=O)Cn2nc(Cc3cccnc3)c3ccccc3c2=O)c1 | ?
O=C1CC(c2cccc(F)c2)C2=C(CCCC2=O)N1 (stereo not drawn) | 0
O=C(Nc1nccs1)c1ccc(S(=O)(=O)N2CCCCC2)cc1 | 0
CCNC(=O)CC1C(=O)N(c2ccccc2)C(=O)N1CCc1ccc(OC)c(OC)c1 (stereo not drawn) | 40
Cc1c(Cl)ccc2c1NC(=O)C21NC(CCC(N)=O)[C@H]2C(=O)N(c3ccc(Cl)cc3)C(=O)[C@H]21 (stereo partly drawn) | 240
CC1(C)Cc2c(C#N)c(N3CCCC3)nc(-c3ccco3)c2CO1 | 0
Cc1nnc(NC(=O)c2ccco2)s1 | 0
CCCC(C)C(=O)Nc1ccc(NC(C)=O)cc1 (stereo not drawn) | 0
CCN1CCN(CC(=O)Nc2cccc(C)c2C)C(=O)C1=O | 0
